Assay outcomes (PubChem)
Ecoli rRNA inh – reduced GFP signal of wild-type E. coli, primary screen, bacterial rRNA inhibitor project, GFP/RFP fluorescence, OD600, single point; GFP signal change (wild-type ribosome), % (no concentration beside the values); E. coli WT GFP vs humanized-ribosome RFP mutants, 24 h; hits give low values; DMSO median 0, no signal -100; 350,000 compounds, 1.6% hits;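 active = significant combined selectivity score with lowered wild-type GFP, culture density cut under 30%, mutant RFP and density less affected; inactive = any of these conditions unmet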; note: one replicate is shown; some compounds called inactive have numbers as strong as hits
FGF22 binding – binders of human FGF22 protein, primary screen, FGF22 synaptogenesis inhibitor project, biophysical, thermal shift, single point; Fibroblast growth factor 22 (Homo sapiens), Q9HCT0; recombinant FGF22 thermal shift, SYPRO orange fluorescence; percent of sucrose octasulfate shift, DMSO zero; calls only at 9.99 µM; 340,000 compounds, 1.5% hits; AID 651658, 2012;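 active = melting point raised past a set limit in the mean and every replicate; three in four hits are not shown here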
Target sequence (Q9HCT0 whole entry, looked up): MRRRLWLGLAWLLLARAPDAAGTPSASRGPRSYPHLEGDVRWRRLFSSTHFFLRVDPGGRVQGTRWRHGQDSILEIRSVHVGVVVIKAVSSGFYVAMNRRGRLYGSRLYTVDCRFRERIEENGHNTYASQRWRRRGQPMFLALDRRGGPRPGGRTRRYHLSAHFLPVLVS
AF4-AF9 inh – inhibitors of AF4 peptide binding to AF9, primary screen, biochemical, AlphaScreen, biotin-AF4 peptide, FLAG-AF9, single point. 350,000 compounds, 0.47% hits. inhibition, % at 10 µM. AID 651704, 2012;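 active = every replicate reaching a set inhibition limit, whatever the replicate mean, cut at about 25% in these data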;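 note: 0% = plate neutral control median and 100% = total signal loss; the record names both 10 and 1 µM as test concentration; the first replicate is given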
Target sequence (P42568 whole entry, looked up): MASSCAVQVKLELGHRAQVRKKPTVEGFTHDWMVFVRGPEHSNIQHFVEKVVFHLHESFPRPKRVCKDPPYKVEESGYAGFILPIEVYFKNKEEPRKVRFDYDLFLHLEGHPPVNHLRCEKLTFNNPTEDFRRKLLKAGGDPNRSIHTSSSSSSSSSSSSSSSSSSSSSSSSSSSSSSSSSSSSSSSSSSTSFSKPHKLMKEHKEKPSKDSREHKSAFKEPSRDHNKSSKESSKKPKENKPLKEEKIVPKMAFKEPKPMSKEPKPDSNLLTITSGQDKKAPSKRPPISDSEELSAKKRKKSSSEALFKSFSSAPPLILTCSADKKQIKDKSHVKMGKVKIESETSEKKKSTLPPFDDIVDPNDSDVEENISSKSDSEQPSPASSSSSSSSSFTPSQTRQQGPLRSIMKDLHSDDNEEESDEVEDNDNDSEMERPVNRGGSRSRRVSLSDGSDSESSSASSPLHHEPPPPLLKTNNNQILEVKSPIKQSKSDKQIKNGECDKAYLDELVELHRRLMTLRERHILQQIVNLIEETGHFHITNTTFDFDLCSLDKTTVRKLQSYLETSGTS
Ecoli rRNA inh OD600 – further read-out of Ecoli rRNA inh, marked with its call; OD600 change, %; measured here: OD600 growth;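 optical density of the mix in the first replicate; 0 = DMSO median and -100 = no signal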
Ecoli rRNA inh RFP – also measured in Ecoli rRNA inh; calls as there; RFP signal change, %; measured here: RFP humanized mutant strains;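 first replicate; 0 = DMSO median and -100 = no signal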
* = called active by the depositor; i = inactive; x = not tested or not shown; & = joins results of further samples. Not all compounds are listed, so the mix of outcomes need not match the whole.

Every second line gives: Ecoli rRNA inh	Ecoli rRNA inh OD600	Ecoli rRNA inh RFP	FGF22 binding	AF4-AF9 inh
O=C(Nc1cccc(F)c1)c1ccc(-n2cncn2)c2ccoc12
 : 14	15	-7.9	i	-1.2
CCCN1C[C@H](C)[C@@H](OC)CN(C)C(=O)c2cc(NC(=O)c3ccc(F)cc3)ccc2OC[C@H]1C
 : -2	1	0.5	i	0.7
N#C[C@@H]1[C@@H](c2ccc(C3=CCCC3)cc2)[C@@H](CO)N1C(=O)C1CCC1
 : 0	12	-2.0	i	-0.6
O=C(CN1CCOCC1)N[C@@H]1CC[C@H](CCNC(=O)C2CCC2)O[C@H]1CO
 : 1	-8	-1.8	i	3.3
O=C([C@H]1[C@H](CO)[C@H]2Cn3c(cccc3=O)[C@H]2N1CCC(F)(F)F)N1CCCCC1
 : 3	5	-0.4	i	-3.0
C[C@H](CO)N1C[C@H](C)[C@H](CN(C)Cc2ccccc2)Oc2c(NC(=O)C3CC3)cccc2C1=O
 : 4	3	0.2	i	-4.9
O=C(C[C@H]1CC[C@@H]2[C@H](COC[C@@H](O)CN2C(=O)c2ccc(F)cc2)O1)Nc1ccc(-c2ccccc2)cc1
 : -9	-40	21	i	6.7
COc1ccc(CN(C)C[C@@H]2Oc3ccc(NS(C)(=O)=O)cc3C(=O)N([C@H](C)CO)C[C@@H]2C)cc1
 : 4	1	-2.0	i	-1.9
C[C@@H]1CN([C@@H](C)CO)C(=O)c2cc(NC(=O)c3ccncc3)ccc2O[C@@H](C)CCCCO[C@H]1CN(C)CC1CCCCC1
 : 1	0	1.7	i	0.5
CCCNC(=O)C[C@@H]1CC[C@@H]2[C@H](COC[C@@H](O)CN2C(=O)Nc2ccc3c(c2)OCO3)O1
 : 2	-1	-1.6	i	-0.4
O=C(NCc1ccc(F)cc1)c1cc(C2CCCCN2C(=O)CCc2ccccc2)on1 (stereo not given)
 : -7	-12	6.9	i	-1.6
CCCN1C[C@H](C)[C@H](OC)CN(C)C(=O)c2cc(NC(=O)c3cccc(F)c3)ccc2OC[C@H]1C
 : 3	5	-1.6	i	-1.4
CC=Cc1ccc2n(c1=O)C[C@H]1[C@H](CO)[C@@H](C(=O)N3CCc4ccccc4C3)[C@@H]2N1Cc1cocn1 (mixture of isomers)
 : 0	1	-1.9	i	-0.5
O=C(OCc1ccccc1)N1CCC2CC1c1cc(NCCc3ccccc3)ccc12 (stereo not given)
 : 18	20	32	i	1.2
C[C@@H]1CN([C@@H](C)CO)C(=O)Cc2cc(NC(=O)CCN3CCOCC3)ccc2O[C@H]1CN(C)Cc1ccncc1
 : 2	10	-1.4	i	-19
Brc1ccc(CN2CCCc3nc(-c4ccccc4)ccc32)cc1
 : -1	3	10	i	6.5
C[C@H](CO)N1C[C@H](C)[C@H](CN(C)Cc2ccc3c(c2)OCO3)Oc2c(NC(=O)c3cnccn3)cccc2C1=O
 : -5	-1	-2.0	i	-0.5
C[C@@H]1CCCCO[C@H](CN(C)C)[C@@H](C)CN([C@H](C)CO)C(=O)c2cc(NC(=O)Nc3ccc4c(c3)OCO4)ccc2O1
 : 2	5	-2.4	i	-4.6
CCC[C@H]1CC(=O)C=C(c2ccsc2)ON1C(=O)OC(C)(C)C
 : -5	-10	-7.6	i	8.8
COc1ccccc1S(=O)(=O)N(C)C[C@H]1OCc2ccccc2-c2ccccc2C(=O)N([C@H](C)CO)C[C@H]1C
 : 0	-1	-0.7	i	-4.2

Full records from above:
Brc1ccc(CN2CCCc3nc(-c4ccccc4)ccc32)cc1 is listed as Ecoli rRNA inh: -1; Ecoli rRNA inh OD600: 3; Ecoli rRNA inh RFP: 10; FGF22 binding: i; AF4-AF9 inh: 6.5
N#C[C@@H]1[C@@H](c2ccc(C3=CCCC3)cc2)[C@@H](CO)N1C(=O)C1CCC1 is listed as Ecoli rRNA inh: 0; Ecoli rRNA inh OD600: 12; Ecoli rRNA inh RFP: -2.0; FGF22 binding: i; AF4-AF9 inh: -0.6

Some entries already given, reduced to AF4-AF9 inh, FGF22 binding and Ecoli rRNA inh RFP:
| mol | AF4-AF9 inh | FGF22 binding | Ecoli rRNA inh RFP |
| --- | --- | --- | --- |
| O=C(OCc1ccccc1)N1CCC2CC1c1cc(NCCc3ccccc3)ccc12 (stereo not given) | 1.2 | i | 32 |
| C[C@@H]1CN([C@@H](C)CO)C(=O)Cc2cc(NC(=O)CCN3CCOCC3)ccc2O[C@H]1CN(C)Cc1ccncc1 | -19 | i | -1.4 |
| Brc1ccc(CN2CCCc3nc(-c4ccccc4)ccc32)cc1 | 6.5 | i | 10 |
| C[C@H](CO)N1C[C@H](C)[C@H](CN(C)Cc2ccc3c(c2)OCO3)Oc2c(NC(=O)c3cnccn3)cccc2C1=O | -0.5 | i | -2.0 |
| C[C@@H]1CCCCO[C@H](CN(C)C)[C@@H](C)CN([C@H](C)CO)C(=O)c2cc(NC(=O)Nc3ccc4c(c3)OCO4)ccc2O1 | -4.6 | i | -2.4 |

Later entries:
Every second line gives: Ecoli rRNA inh	Ecoli rRNA inh OD600	Ecoli rRNA inh RFP	FGF22 binding	AF4-AF9 inh
C[C@H](CO)N1C[C@H](C)[C@@H](CN(C)C(=O)Nc2ccc(C(C)(C)C)cc2)OCc2cn(nn2)CCCC1=O
 : 1&18	-1&18	0.1&1.8	i	0.8&-1.5
COc1ccccc1NC(=O)Nc1ccc2c(c1)C(=O)N(C)C[C@@H](OC)[C@H](C)CN[C@@H](C)CO2
 : 0	1	1.3	i	1.3
N#C[C@H]1[C@H](c2ccc(-c3cccnc3)cc2)[C@@H](CO)N1C(=O)C1CC1
 : 1	4	1.5	i	-1.8
COc1ccc(S(=O)(=O)Nc2cccc3c2O[C@@H](CN(C)Cc2ccc(C(F)(F)F)cc2)[C@H](C)CN([C@H](C)CO)C3=O)cc1
 : -6	-10	-1.8	i	3.6
CN(C)C(=O)[C@@H]1[C@@H](CO)[C@@H]2Cn3c(ccc(-c4cccnc4)c3=O)[C@H]1N2C(=O)NC1CCCC1
 : 1	3	-0.7	i	-0.8
CCS(=O)(=O)NCC[C@H]1CC[C@H](NC(=O)C2CCOCC2)[C@H](CO)O1
 : -1	-2	0.0	i	-5.0
COc1ccc(CNC(=O)C2Cc3c(-c4cccc(C(C)=O)c4)ccnc3O2)cc1OC (stereo not given)
 : 2	-2	1.1	i	13
COc1ccc2c3c(n(C)c2c1)[C@@H](CO)N(Cc1ccccc1F)CC31CCN(C(=O)C2CC2)CC1
 : 1	-1	-0.9	i	-1.4
COc1ccc(-c2coc3c(C(=O)NCC4CC4)cccc23)c(C)c1
 : -21	-48	4.8	i	-3.8
Cc1ccc(S(=O)(=O)Nc2cccc3c2O[C@H](CN(C)Cc2ccc(C(=O)Nc4ccccc4N)cc2)[C@H](C)CN([C@H](C)CO)C3=O)cc1
 : 0	5	-2.1	i	0.3
C[C@H]1CN([C@@H](C)CO)C(=O)c2cc(C#CCc3ccccc3)cnc2O[C@@H]1CN(C)CC1CCCC1
 : -1	-1	16	i	13
COc1ccccc1CNc1nc(NCCOc2ccccc2)c2sccc2n1
 : -59	-76	-19	i	-0.8
C[C@H](CO)N1C[C@H](C)[C@@H](CN(C)Cc2ccc(C(=O)O)cc2)Oc2ccc(NC(=O)Nc3ccc(F)cc3)cc2C1=O
 : 3	3	2.2	i	-3.3
C[C@@H]1CCCCO[C@H](CN(C)Cc2ccncc2)[C@H](C)CN([C@H](C)CO)C(=O)c2cc(NC(=O)CCC(F)(F)F)ccc2O1
 : 0	-2	0.3	i	-1.5
Cc1noc(C)c1S(=O)(=O)Nc1ccc2c(c1)C(=O)N([C@@H](C)CO)C[C@@H](C)[C@@H](CN(C)S(C)(=O)=O)OCCCC[C@@H](C)O2
 : -2	16	2.0	i	0.5
O=C(Nc1ccc(Cl)cc1)N[C@@H]1CC[C@@H](CCNC(=O)c2ccccc2F)O[C@@H]1CO
 : 2	3	-0.3	i	-14
CC(C)CC#Cc1ccc2c(c1)O[C@@H](CN(C)C)[C@H](C)CN([C@H](C)CO)S2(=O)=O
 : -5	-16	5.0	i	5.8
CC(=O)c1cccc(NC(=O)C2(C)Cc3c(-c4ccccc4)ccnc3O2)c1 (stereo not given)
 : -10	-36	-2.4	i	-2.0
COC(=O)c1ccc2nc(-c3ccc(F)cc3)c(Cc3ccccc3OC)n2c1
 : -1	-7	-1.0	i	-0.5
CCOC(=O)C1C(=O)C(=O)N(C2CCCCC2)C1C(=O)OCC (stereo not given)
 : 8	8	-2.0	i	-1.1
O=C(C[C@H]1C[C@H]2c3cc(NC(=O)Nc4ccc(C(F)(F)F)cc4)ccc3O[C@H]2[C@H](CO)O1)NCc1ccc(Cl)cc1
 : 7	5	1.4	i	-1.8
Cc1noc(C)c1NC(=O)Nc1cccc2c1O[C@@H](CN(C)S(=O)(=O)c1ccc(Cl)cc1)[C@H](C)CN([C@H](C)CO)C2=O
 : -2	2	-1.5	i	-2.4
C=CCN(C(=O)CSc1nc2ccsc2c(=O)n1Cc1ccc(C(=O)O)cc1)c1ccccc1
 : -13	-39	-6.3	i	2.0
COc1ccccc1C1NC(=O)NC(C)=C1C(=O)OCC1CCCCC1 (stereo not given)
 : -29	-56	8.0	i	1.4
CN1C(=O)c2cc(NC(=O)c3ccccc3)ccc2OC[C@H]2O[C@H](CC(=O)NC3CCCC3)CC[C@H]21
 : 1	2	1.9	i	-2.4
Cc1cccc(NC(=O)Nc2ccc3c(c2)C(=O)N(C)[C@H]2CC[C@H](CC(=O)NCc4ccccc4Cl)O[C@H]2CO3)c1
 : 1	-2	3.2	i	5.0
C[C@@H]1CN([C@@H](C)CO)S(=O)(=O)c2ccc(-c3ccc(C#N)cc3)cc2O[C@H]1CN(C)C
 : 0	-3	-1.0	i	-1.3
C[C@H](NC(=O)C[C@@H]1C=C[C@H](NC(=O)Nc2ccc3c(c2)OCO3)[C@@H](CO)O1)c1ccccc1
 : 1	-2	-1.6	i	1.2
CCCCN(C)c1c(C)nc2ccc(C(=O)N(C)Cc3ccco3)cn12
 : -5	-15	-1.3	i	1.7
CCN(c1ccc(NC(=O)COC(=O)C(C)N=C2NS(=O)(=O)c3ccccc32)cc1)C(C)C (stereo not given)
 : 0	-1	-3.4	i	-4.1
CC1(C)CC(=O)C=C(c2ccc(-c3cccc4c3sc3ccccc34)cc2)C1=O
 : 8	7	1.5	i	5.2
COC(=O)C1=C(C)N(C)C(=NCc2cc(OC)c(OC)c(OC)c2)NC1c1cccc(C(F)(F)F)c1 (stereo not given)
 : 11	14	6.8	x	-0.9
C[C@H](CO)N1C[C@H](C)[C@H](CN(C)Cc2ccc(Oc3ccccc3)cc2)Oc2c(NC(=O)C3CC3)cccc2C1=O
 : -3	-1	0.6	i	0.4
CCC(=O)N1[C@@H](CO)[C@@H]2c3ccccc3N(S(=O)(=O)c3ccccc3F)C[C@@H]21
 : -2	0	-0.9	i	-2.7
COc1ccc(C(O)c2nc(-c3cccc4cccnc34)cs2)cc1 (stereo not given)
 : -18	-44	22	i	4.3
C[C@H]1CN([C@@H](C)CO)C(=O)c2cc(C#Cc3ccccc3)cnc2O[C@@H]1CN(C)C(=O)c1ccccn1
 : -5	-2	-0.1	i	-3.0
C[C@@H]1CCCCO[C@@H](CN(C)C(=O)c2ccccc2)[C@@H](C)CN([C@H](C)CO)C(=O)c2cc(NC(=O)Nc3ccc(C(F)(F)F)cc3)ccc2O1
 : 0	4	-3.0	i	3.2
Cc1cccc(S(=O)(=O)N2CCCCN3[C@H](CO)[C@H](c4ccc(-c5ccncc5)cc4)[C@@H]3C2)c1
 : -44	-54	7.9	i	-6.5
O=S(=O)(N[C@@H]1CC[C@H](CCn2cc(Cc3ccccc3)nn2)O[C@H]1CO)c1ccccc1F
 : -4	-6	1.7	i	-1.6
Cc1ccccc1-c1ccc([C@@H]2[C@@H](CO)N3CCCCN(C(=O)Nc4cccc(F)c4)C[C@@H]23)cc1
 : -10	-23	28	i	-4.6
O=C(C[C@H]1CC[C@H](NC(=O)C2CCC2)[C@H](CO)O1)NCc1ccncc1
 : 2	3	-0.3	i	-1.2
COc1cccc(-c2cnc3c(c2)C(=O)N([C@H](C)CO)C[C@@H](C)[C@@H](CN(C)Cc2ccncc2)O3)c1
 : -6	-6	-0.7	i	-3.3
CO[C@H]1CN(C)C(=O)c2ccc(NC(C)=O)cc2OC[C@H](C)N(Cc2ccccc2F)C[C@@H]1C
 : -4	-6	5.6	i	3.5
S=C(NCCN1CCOCC1)C(=S)NCCN1CCOCC1
 : 9	9	-1.9	i	-4.4
O=C(c1c(F)cccc1Cl)N(Cc1ccco1)C1CCS(=O)(=O)C1 (stereo not given)
 : 13	14	0.4	i	-3.1

Some values from the results shown:
Value of S=C(NCCN1CCOCC1)C(=S)NCCN1CCOCC1 in Ecoli rRNA inh OD600: 9
Value of O=C(c1c(F)cccc1Cl)N(Cc1ccco1)C1CCS(=O)(=O)C1 (stereo not given) in Ecoli rRNA inh OD600: 14
Value of CO[C@H]1CN(C)C(=O)c2ccc(NC(C)=O)cc2OC[C@H](C)N(Cc2ccccc2F)C[C@@H]1C in Ecoli rRNA inh RFP: 5.6
